# Source: PubChem
# NS1 function inh = inhibitors of influenza NS1 protein function; S. cerevisiae slowed by influenza A NS1, growth recovery by OD600; Potency, µM (doses to about 46.1 µM), for the others: at the highest dose activity, positive = more growth; 270,000 tested, 0.4% active; also: actives are rising curves; nearly all actives have a fitted effect of over 50% in size
#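 Growth recovery, yeast-based: influenza A NS1 expressed in S. cerevisiae causes slow growth, and suppressors are detected by OD600. The parent strain without NS1 is used as positive control.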
# SARS PLP yeast = inhibitors of SARS-CoV papain-like protease in yeast. S. cerevisiae expressing SARS-CoV PLpro, growth rescue; control for the full effect not named in the record. Potency, µM (titrated, usually from 32.9 µM), inactives show at the highest dose activity, positive = growth rescue. 330,000 tested, 0.19% active. AID 485353; also: 0% is about no effect; nearly all actives have a fitted effect of over 55% in size; growth read by luminescence after 48 h
# Numbers without * were called inactive; ? = inconclusive; [ ] = remark or other dose. Calls follow the shape of the dose curve; as a rule, active means well fitted rising curve with a large enough effect; inconclusive means small, poorly fitted or top-dose-only effect; inactive means no such curve, though single readings can be large or run the other way. Potency is read from the fitted curve at half-maximal effect. Only part of the results is shown; count on the stated rates, not on these rows.
compound	NS1 function inh	SARS PLP yeast
O=C(CSc1nc2[nH]ncc2c(=O)n1-c1ccccc1)N1CCCCCC1	3%	1%
ONc1cccnc1-n1nc(C(F)(F)F)cc1C(F)(F)F	4%	-1%
Cc1cc(S(=O)(=O)N2CCCC(N(C)CCc3ccccn3)C2)c(C)s1 (stereo not drawn)	1%	0%
O=C(Oc1cccc(O)c1)C1CCCCC1	2%	-2%
CC(=O)OC1COC(OC2C(O)C(C)OC(OC3C(OC4CCC5(C)C(CCC6(C)C5CC=C5C7CC(C)(C)CCC7(C(=O)O)CCC56C)C4(C)CO)OCC(O)C3O)C2O)C(O)C1OC(C)=O (stereo not drawn)	15%	-6%
CCOC(=O)C1CCN(S(=O)(=O)c2c(Cl)ccc3nonc23)CC1	-40%	-29%
CCCCn1c(=O)c(C(=O)Nc2nnc(C(C)C)s2)c(O)c2ccccc21	2%	1%
CCN1CCc2c(sc(NC(=O)c3ccc4ccccc4c3)c2C(N)=O)C1	-24%	-1%

# Following part:
compound	NS1 function inh	SARS PLP yeast
COc1ccc(COC(=O)c2ccc3c(=O)n4c(nc3c2)CCC4)cc1F	11%	-2%
O=C1C=CC(=O)N1c1ccc(Sc2ccc([N+](=O)[O-])cc2)cc1	-48%	-6%
O=C1CC(c2ccccc2Cl)c2c(sc3c(=O)[nH]c(CCl)nc23)N1 (stereo not drawn)	0%	-1%
CC(C)(C)NC(=O)CN(Cc1ccc2c(c1)OCO2)C(=O)CNC(=O)c1cccs1	-2%	0%
CN1CCc2c(sc(NC(=O)c3ccc(S(=O)(=O)N4CCc5ccccc54)cc3)c2C(N)=O)C1	1%	-4%
C#CCOCCOCCOCCNc1nc(N2CCN(C(=O)[C@H](Cc3cc4ccccc4[nH]3)n3cc([C@@H](N)C(C)CC)nn3)CC2)nc(N2CCN(C(=O)[C@H](Cc3cc4ccccc4[nH]3)n3cc([C@@H](N)Cc4ccc(O)cc4)nn3)CC2)n1 (stereo partly drawn)	8%	-1%
COc1ccc([C@]23Cc4c(ccc5ccccc45)C(O2)C2=C(CC4(CCCCC4)OC2=O)O3)cc1	2%	3%[6.58 µM]
Cc1ccc2c(C(=O)CN3CC(C)CC(C)C3)c(C)[nH]c2c1 (stereo not drawn)	1%	0%

# Other results
compound	NS1 function inh	SARS PLP yeast
COc1cc2c(cc1OC)C(c1cc3cccc(C)c3[nH]c1=O)N(C(=O)c1ccco1)CC2 (stereo not drawn)	20%	1%
CCc1nnc(NC(=O)CSc2ccc(-c3ccc(F)cc3)nn2)s1	8%	0%
O=C(CCC1CCCNC1)c1ccccc1 (stereo not drawn)	27%	-6%
O=C(Nc1ccccc1)O[C@@H]1C[C@H]2CCC(=O)N3CC[C@@H](C1)[C@@H]23	-30%	-10%
O=c1c(C=NCCN2CCNCC2)c(-c2ccccc2)[nH]n1-c1ccc([N+](=O)[O-])cc1	-1%	0%
O=C1CSC(=S)N1c1ccc(F)cc1	0%	-1%
COc1ccc(C2c3c(nc[nH]c3=O)Oc3nc[nH]c(=O)c32)cc1	2%	-1%
O=S(=O)(c1ccc2c(c1)OCCO2)N1CCN(c2nc(-c3cccnc3)nc3ccccc23)CC1	4%	0%

# Later entries
compound	NS1 function inh	SARS PLP yeast
CCC(CC)C(=O)Nc1cccc(SC)c1	5%	-2%
COc1cnc(-c2ccccn2)nc1Oc1cccc(C(F)(F)F)c1	-5%	8%
COc1ccc(N2CCN(C(=O)c3ccc4c(c3)NC(=O)C(CSCc3ccc(C)cc3)N4)CC2)cc1 (stereo not drawn)	14%	-14%
O=c1[nH]cc(N=Cc2cc([N+](=O)[O-])ccc2O)c(=O)[nH]1	-50%	-10%
COc1ccc(NC(=O)Cn2cnc3c(nnn3-c3ccc(C)cc3)c2=O)cc1	5%	1%
O=C(CCCCCNc1nc(=S)[nH]c2ccccc12)NCc1ccccc1Cl	8%	1%
CCCCCCNC(=O)N[C@H](C(=O)NCCC[C@H]1CN2C(=NC[C@H]2C)N1CCC(c1ccccc1)c1ccccc1)C(C)O (stereo partly drawn)	-83%	-20%
COc1ccc(C([O-])=Nc2ccc[n+](-c3nc4ccccc4nc3NS(=O)(=O)c3ccccc3)c2)cc1	16%	1%

# Carrying on.
compound	NS1 function inh	SARS PLP yeast
CCn1c2ccccc2c2cc(NC(=O)c3coc(=O)c(Br)c3)ccc21	4%	0%
Cc1cccc(/C=N/NC(=O)c2ccc3c(c2)OCCO3)c1O	-73%	-10%
CC(COc1ccc(C(C)C)cc1)NC(=O)c1ccc(Br)o1 (stereo not drawn)	-53%	-3%
O=C1c2ccccc2C(=O)C2OC12 (stereo not drawn)	-81%	-5%
O=C(c1cc([N+](=O)[O-])ccc1N1CCOCC1)N1CCN(c2ccccc2)CC1	1%	0%
COc1ccc(C(=O)Nc2ccc(/C(C)=N/NC(=O)c3ccncc3)cc2)cc1	-5%	0%
O=C(Nc1ncccn1)c1ccc([N+](=O)[O-])cc1Cl	-12%	-1%
O=C1OC2(CCCCC2)CC2=C1C1O[C@](c3ccsc3)(Cc3c1ccc1ccccc31)O2	1%	-3%[6.58 µM]

# Single values from above.
# COc1ccc(C(=O)Nc2ccc(/C(C)=N/NC(=O)c3ccncc3)cc2)cc1 @ NS1 function inh: -5%
# O=C(Nc1ncccn1)c1ccc([N+](=O)[O-])cc1Cl @ SARS PLP yeast: -1%
# O=C1c2ccccc2C(=O)C2OC12 (stereo not drawn) @ SARS PLP yeast: -5%

# Returning to the listing, repeating the six entries before the break.
compound	NS1 function inh	SARS PLP yeast
CC(COc1ccc(C(C)C)cc1)NC(=O)c1ccc(Br)o1 (stereo not drawn)	-53%	-3%
O=C1c2ccccc2C(=O)C2OC12 (stereo not drawn)	-81%	-5%
O=C(c1cc([N+](=O)[O-])ccc1N1CCOCC1)N1CCN(c2ccccc2)CC1	1%	0%
COc1ccc(C(=O)Nc2ccc(/C(C)=N/NC(=O)c3ccncc3)cc2)cc1	-5%	0%
O=C(Nc1ncccn1)c1ccc([N+](=O)[O-])cc1Cl	-12%	-1%
O=C1OC2(CCCCC2)CC2=C1C1O[C@](c3ccsc3)(Cc3c1ccc1ccccc31)O2	1%	-3%[6.58 µM]
Cc1nnc2ccc(-c3ccc(NC(=O)c4ccc(Cl)nc4)cc3)nn12	4%	-1%
O=C(Nc1ccnn1C1CCN(Cc2cc3ccccc3[nH]2)CC1)C1CCOC1 (stereo not drawn)	1%	-1%
COc1cc(/C=C2/C(=N)N3C(=NC2=O)SN=C3S(C)(=O)=O)ccc1OS(=O)(=O)c1ccccc1	13%	8%
COc1ccc([C@]23Cc4c(ccc5ccccc45)C(O2)C2=C(CCCC2=O)O3)cc1	?	1%[6.58 µM]
O=C(CCC(=O)N(CC(=O)NC1CCCC1)Cc1ccc2c(c1)OCO2)Nc1nccs1	8%	0%
O=C(N/N=C/c1cc([N+](=O)[O-])ccc1O)c1cccc2ccccc12	-4%	?
CCN1CCc2c(OCC(=O)Nc3ccc4c(c3)OCCO4)cccc2C1=O	0%	-1%
Cc1ccc2nc(N3C(=O)C(O)=C(C(=O)c4ccco4)C3c3ccc(O)cc3)sc2c1 (stereo not drawn)	?	3%

# The results go on:
compound	NS1 function inh	SARS PLP yeast
COc1ccc(COCC(O)CN2CCCC(C(F)(F)F)C2)cc1 (stereo not drawn)	-6%	0%
N#Cc1ccc2c(c1)C[C@]1(CCCCN3C(=O)c4ccccc4C3=O)Oc3c(c(=O)oc4ccccc34)C2O1	2%	-1%[6.58 µM]
C/C(N)=C(/C#N)C(=O)COC(=O)c1cc(-c2ccccc2)nc2ccc(Br)cc12	-2%	1%
O=c1c2sccc2nc(SCc2cc(=O)n3ccccc3n2)n1Cc1ccccn1	3%	3%
C/C(=N\Nc1nc2ccccc2[nH]1)c1ccccn1	-138%	-11%
O=C1COc2ccc(N3C(=O)C=CC3=O)cc2N1	28%	-3%
Cc1ccc(NC(=O)c2ccc(OCc3c(C)noc3C)cc2)cc1	-1%	-2%
O=C1[C@@H]2Cc3c([nH]c4ccccc34)C(c3cccc([N+](=O)[O-])c3)N2C(=O)CN1C1CCN(Cc2ccccc2)CC1 (stereo partly drawn)	7%	2%

# The list goes on.
compound	NS1 function inh	SARS PLP yeast
CCCCCCCCNC(=O)c1ccc(C)cc1	-38%	-2%
COc1ccc(C2=NN(C(=O)c3ccccc3)C(c3ccc(OC)c(OC)c3)C2)c(OC(C)=O)c1 (stereo not drawn)	-3%	0%
COc1ccccc1C(=O)NC(=S)Nc1ccccc1N1CCCC1	20%	-3%
Cc1ccc(S(=O)(=O)N(C)S(=O)(=O)c2ccc(C#N)cc2)cc1	?	-4%
CN(C)c1ccc(CNc2nc3ccccc3s2)cc1	-11%	-5%
COc1ccc(N(CC(=O)NCCC2=CCCCC2)S(=O)(=O)c2ccc(C)cc2)cc1	5%	-1%
Cc1ccc(F)c(NC(=S)Nc2cccc3ccccc23)c1	25%	13%
C#CCOCCOCCOCCNc1nc(N2CCN(C(=O)[C@H](CCCCN)n3cc(C(N)COC(=O)C(F)(F)F)nn3)CC2)nc(N2CCN(C(=O)[C@H](CCCCN)n3cc(C(N)CC(C)C)nn3)CC2)n1 (stereo partly drawn)	-1%	-1%

# Part of the list above in order of SMILES length, ascending.
compound	NS1 function inh	SARS PLP yeast
Cc1ccc(S(=O)(=O)N(C)S(=O)(=O)c2ccc(C#N)cc2)cc1	?	-4%
COc1ccc(N(CC(=O)NCCC2=CCCCC2)S(=O)(=O)c2ccc(C)cc2)cc1	5%	-1%
COc1ccc(C2=NN(C(=O)c3ccccc3)C(c3ccc(OC)c(OC)c3)C2)c(OC(C)=O)c1 (stereo not drawn)	-3%	0%

# More entries follow:
compound	NS1 function inh	SARS PLP yeast
O=C(NCCCN1CCOCC1)c1ccc(Br)cc1Br	3%	1%
Cc1ccc(S(=O)(=O)N2CCSC2=Nc2ccccc2)cc1	-53%	3%
COCC(=O)Nc1ccc(C(=O)Nc2ccccc2Cl)cc1	-2%	-2%
C[C@@H](C(=O)N1CCN(C(=O)OC(C)(C)C)CC1)n1cc(-c2cn([C@@H](C)C(=O)N3CCN(C(=O)OC(C)(C)C)CC3)nn2)nn1	-4%	0%
COc1ccc(CNC(=O)C/C(C)=N/NC(=O)c2cc(OC)cc(OC)c2)cc1	3%	-4%
Nc1[nH]n2c(=O)cc(-c3ccccc3)nc2c1N=Nc1ccc2c(c1)OCO2	?	0%
CCCCn1c(C)cc2c(c1=O)C1O[C@](c3ccsc3)(Cc3ccccc31)O2	14%	0%[6.58 µM]
COc1cccc(C(=O)CC(=O)C(=O)Nc2cc(OC)c(OC)c(OC)c2)c1	1%	-2%

# The list continues.
compound	NS1 function inh	SARS PLP yeast
O=S1(=O)CCOCCN1Cc1ccc(Cl)cc1Cl	-12%	-8%
COCCNC(=O)/C(C#N)=c1\s/c(=C\c2ccccc2OC(F)F)c(=O)n1Cc1ccccc1	2%	0%
O=C(/C=C/c1ccc(Br)o1)Nc1nnc(C2CC2)s1	11%	0%
[O-][n+]1onc2c1CCC(=N/O)/C2=N\Nc1ccccc1	9%	2%
COc1ccc(-c2[nH]n(-c3ccc([N+](=O)[O-])cc3)c(=O)c2C=NCCN2CCNCC2)cc1	1%	-2%
ClCc1csc(N/N=C/c2cccs2)n1	-6%	1%
C#CCOCCOCCOCCNc1nc(N2CCN(C(=O)[C@H](Cc3ccc(O)cc3)n3cc([C@@H](N)C(C)CC)nn3)CC2)nc(N2CCN(C(=O)[C@H](CCCCN)n3cc([C@@H](N)CC(C)C)nn3)CC2)n1 (stereo partly drawn)	3%	-2%
Cc1ccc2oc(=O)c3cc(C(=O)N4CCN(C(=O)c5ccco5)CC4)sc3c2c1	-39%	2%

# Carrying on.
compound	NS1 function inh	SARS PLP yeast
CCn1ncc(Cl)c1C(=O)Nc1ccc2c(c1)CCC2	-8%	-1%
COc1cccc(/C=C2\SC(=S)N(NS(=O)(=O)c3ccc(C)cc3)C2=O)c1OC	0%	-5%
CCOC(=O)c1cnc2cc(F)c(F)cc2c1N1CCN(C)CC1	1%	2%
CN1CCc2c(sc(NC(=O)c3ccc4ccccc4c3)c2C(N)=O)C1	-34%	-6%
Cc1ccsc1C(=O)C1CCCN(Cc2cnc(N(C)C)s2)C1 (stereo not drawn)	2%	-1%
C[n+]1nc(Nc2cccc3ccccc23)sc1-c1ccc(C(=O)O)cc1	10%	2%
c1cc2c(cc1OCCNC1CCCC1)CCC2	8%	0%
O=C(CC(Sc1ccc(Br)cc1)C(=O)O)c1ccc(Br)cc1 (stereo not drawn)	-46%	-5%

# The listing continues.
compound	NS1 function inh	SARS PLP yeast
O=C(O)c1cc(-c2cc(C(=O)O)c3ccccc3n2)nc2ccccc12	2%	-1%
COc1ccc(S(=O)(=O)Oc2ccccc2C(=S)N2CCOCC2)cc1	7%	0%
c1ccc(CCCOCCC2CO2)cc1 (stereo not drawn)	25%	9%
CC(NC(=O)c1cc(Br)ccc1Br)c1ccccc1 (stereo not drawn)	3%	-1%
O=C(Nc1ccc(F)c([N+](=O)[O-])c1)c1ccc2c(c1)C(=O)OC2=O	8%	2%
CCO[C@H]1OC(C(=O)O)=C[C@@H](C2CC2)[C@@H]1CCCO	-1%	-1%
Cc1ccc(S(=O)(=O)N(C(=N)N)c2nc(N(C)C)nc(N(C)C)n2)cc1	0%	-1%
Oc1ccccc1-c1cc(C(F)(F)F)[nH]n1	-128%	-4%

# More records.
compound	NS1 function inh	SARS PLP yeast
CCOc1ccc(NC(C)C(=O)N/N=C/c2ccc([N+](=O)[O-])cc2)cc1 (stereo not drawn)	-4%	2%
CCS(=O)(=O)C1=NN2C(=N)/C(=C\c3ccc(OC(=O)c4ccco4)c(Br)c3)C(=O)N=C2S1	5%	8%
CC1=C(C)CC(C(=O)NCc2cccc(Cl)c2)C(C(=O)O)C1 (stereo not drawn)	26%	-2%
O=C(Nc1nc(-c2ccccn2)cs1)c1ccc(S(=O)(=O)N2CCCCC2)cc1	-69%	-3%
